Mtb growth – M. tuberculosis H37Rv growth inhibitors, H37Rv strain (AID 1626). M. tuberculosis H37Rv growth inhibition; higher % means a stronger effect. inhibition, % at 10 µM; hits with a dose series show IC50 in µM. hit rate 0.95% among 220,000;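 active means confirmed in a dose series; inconclusive means inhibition above 80% but not taken into the dose series; inactive means below 80% or under 30% at every dose of the series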;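 further: bacteria incubated seven days before Alamar blue readout; 0% = bacteria only wells and 100% = bacteria with antibiotic wells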
Mtb bLac sens – beta-lactam sensitization of Mtb H37Rv; inhibition, % at 25 µM; M. tuberculosis H37Rv growth with meropenem, percent inhibition; hits of this screen are not shown here; hit rate 0.27% among 330,000;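 active means about 74% or more and at least 40 points above the plate without the antibiotic, then above 30% in a dose series; inconclusive means first-round hits that could not be retested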;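 further: growth measured after seven days incubation then overnight dye step; 0% = bacteria only wells and 100% = bacteria with antibiotic; twin plates without the antibiotic show which effects depend on it; some results filed as inactive read as strong as hits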
YopH inh – blocks Yersinia enterocolitica YopH tyrosine phosphatase; fluorescence Ex485/Em525; inhibition, %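 (about 10 µM by stock and volumes)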; hit rate 0.16% among 140,000; AID 898;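 active means inhibition of 50% or more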;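 further: controls were vehicle for no effect and minimum signal wells for full effect; inactives centre near -20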
RecA intein inh – inhibitors of M. tuberculosis RecA intein splicing; P9WHJ3; inhibition, %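 (about 9 µM by stock and volumes)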; hit rate 0.75% among 290,000; cell-free RecA intein splicing, fluorescence; in the data active means inhibition above about 30%; inconclusive means no clear call, values can overlap the other calls;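 further: 0% = vehicle wells and 100% = reference inhibitor control wells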
Target sequence (P9WHJ3 whole entry, looked up): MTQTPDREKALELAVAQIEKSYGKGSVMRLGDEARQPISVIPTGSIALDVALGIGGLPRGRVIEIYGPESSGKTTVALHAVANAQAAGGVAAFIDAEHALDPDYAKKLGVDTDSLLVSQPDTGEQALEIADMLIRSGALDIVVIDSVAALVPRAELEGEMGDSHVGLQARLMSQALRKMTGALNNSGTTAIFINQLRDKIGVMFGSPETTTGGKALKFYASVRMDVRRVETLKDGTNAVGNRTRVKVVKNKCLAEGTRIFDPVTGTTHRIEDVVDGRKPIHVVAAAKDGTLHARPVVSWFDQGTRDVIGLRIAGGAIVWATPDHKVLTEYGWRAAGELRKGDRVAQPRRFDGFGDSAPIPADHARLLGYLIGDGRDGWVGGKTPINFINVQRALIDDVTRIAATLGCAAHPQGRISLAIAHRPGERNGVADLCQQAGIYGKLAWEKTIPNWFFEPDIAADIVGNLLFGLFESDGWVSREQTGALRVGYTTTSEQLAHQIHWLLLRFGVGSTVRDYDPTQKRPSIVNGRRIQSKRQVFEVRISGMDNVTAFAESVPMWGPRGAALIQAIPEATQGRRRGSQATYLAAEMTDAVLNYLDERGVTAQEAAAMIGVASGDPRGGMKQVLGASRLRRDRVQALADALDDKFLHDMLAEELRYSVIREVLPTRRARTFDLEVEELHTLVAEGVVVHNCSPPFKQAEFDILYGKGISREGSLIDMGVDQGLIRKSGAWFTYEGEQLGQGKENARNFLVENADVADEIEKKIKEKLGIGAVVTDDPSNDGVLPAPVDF
Arbovirus anti – blocks arbovirus infection; inhibition, % at 10 µM; hit rate 0.37% among 200,000; arbovirus infection cell-based antiviral screen;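 active means inhibition from about 30%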;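 further: bluetongue infection of BSR cells; cell survival read as ATP light after 72 h; 0% = infected wells without compound and 100% = uninfected wells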
Arbovirus anti repeat – further read-out of Arbovirus anti, marked with its call; inhibition, %; measured here: 10K subset replicate screen; many hits read low in the repeat;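 first of two repeat runs on a subset; 0% = infected and 100% = uninfected wells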
Numbers without * were called inactive; ? = inconclusive; / = no result given. These rows are one share of the data; the hit share may differ from the screen's.

SMILES	Mtb growth	Mtb bLac sens	YopH inh	RecA intein inh	Arbovirus anti	others
CS(=O)(=O)c1nc(-c2ccc(F)cc2)cc(C(F)(F)F)n1	9%	/	/	/	-29
NC(=O)c1ccccc1NC(=O)CCn1c(=S)oc2ccccc21	/	4	/	-2.1	/
C=CCn1c(=NC(=O)C2CC2)sc2cc(NC(C)=O)ccc21	3%	-2	-47	0.2	-3	Arbovirus anti repeat=-7
O=C(NCc1ccccc1Cl)C(=O)NCC1OCCN1S(=O)(=O)c1cccs1 (centres undefined)	3%	-14	/	2.4	-7
Cc1ccc(N2CC(C(=O)NCc3ccco3)CC2=O)cc1Cl (centres undefined)	/	-4	/	1.2	/
COc1ccc(Br)cc1CN(C)CC(=O)Nc1cc(Cl)ccc1Cl	-2%	1	-5	-1.0	9
O=c1ccn(Cc2ccccc2)c(=O)n1Cc1ccccc1	15%	-2	31	-2.3	5
O=S1(=O)N=C(N(CCO)/N=C/c2ccccc2)c2ccccc21	-2%	/	/	-2.7	-6
COc1ccc(CNC(=O)c2cccc(C)c2[N+](=O)[O-])cc1	17%	9	0	-0.3	5
O=c1c2ccccc2nc(/C=C/c2ccc(O)cc2)n1-c1ccccc1O	5%	1	/	0.9	/
O=C(Cn1c(=O)c(=O)n(Cc2ccccc2)c2ccc(Cl)cc21)Nc1ccc(F)cc1F	0%	-1	/	-1.3	-5
Cc1cccnc1CCNC(=O)CCc1nnc(-c2ccccc2)o1	5%	-4	/	-1.4	-3

The final 2 compounds of the section above come first, to join the parts.
SMILES	Mtb growth	Mtb bLac sens	YopH inh	RecA intein inh	Arbovirus anti	others
O=C(Cn1c(=O)c(=O)n(Cc2ccccc2)c2ccc(Cl)cc21)Nc1ccc(F)cc1F	0%	-1	/	-1.3	-5
Cc1cccnc1CCNC(=O)CCc1nnc(-c2ccccc2)o1	5%	-4	/	-1.4	-3
O=S(=O)(c1ccccc1OC(F)(F)F)N1CCN(c2ccnc3cc(Cl)ccc23)CC1	/	4	/	3.9	/
O=C(COc1ccc2ccccc2c1)NCCc1ccc2c(c1)OCCO2	0%	1	-20	24	14
Cc1ccc(C)c(OC(=O)c2cccnc2Cl)c1C	/	-3	/	4.2	/
CC(/C=C1\SC(=S)N(NC(=O)c2ccccc2C)C1=O)=C\c1ccccc1	0%	2	-10	1.0	-10
Cc1ccccc1OCC(=O)OCC(=O)NCC1CCCO1 (centres undefined)	1%	-7	/	/	0
CCNc1nc(NCC)nc(N2CC(=O)N(CC(=O)OCC)C2=N)n1	-3%	1	-28	-0.3	/
COc1cccc(CN2CCN(C3CCOCC3)CC2CCO)c1 (centres undefined)	-4%	-6	/	-0.3	/
O=C(COC(=O)c1ccco1)Nc1ccccc1[N+](=O)[O-]	-11%	2	/	-1.6	-2
COc1cc(C(=O)ON=C2C(C)=CC(=O)C=C2C)cc(OC)c1OC	-12%	-2	7	0.1	-34
CCC(=O)N1CCc2cc(Br)cc(S(=O)(=O)N3CCN(C(=O)c4ccco4)CC3)c21	-9%	-2	-21	0.4	0	Arbovirus anti repeat=9
O=C(NCC(=O)N1CCN(c2ccccc2)CC1)c1ccc(Br)o1	/	-7	/	-0.4	/
CNC(=O)CN1C(=O)NC(c2ccccc2)(c2ccccc2)C1=O	/	4	/	-2.3	/
Cc1ccc(C)c(NC(=O)CN(C)C(=O)c2ccccc2OCc2ccc(Cl)cc2)c1	/	-5	/	0.4	/
CC/C(=N\Nc1cccc2ccccc12)c1c(O)[nH]c(=O)[nH]c1=O	?	6	-13	-1.0	-5
CC(NCCC(Cc1ccccc1)c1ccco1)c1ccccc1 (centres undefined)	6%	-1	/	-0.1	/
Cc1nn(-c2ccccc2)c(C)c1/C=N/NC(=O)c1cccs1	0%	45	2	-1.6	-18
O=C(Nc1nnc(-c2ccccc2F)s1)C1CCCO1 (centres undefined)	-1%	2	1	0.6	-2
O=C1CC(Nc2ccc(N3CCOCC3)cc2)C(=O)N1CCc1ccccc1 (centres undefined)	8%	3	-13	-1.3	3
COc1ccc(C(C(=O)NC2CCCC2)N(C(=O)c2ccco2)c2cccc(C(C)=O)c2)cc1OC (centres undefined)	/	-8	/	-2.4	/
Cc1cc(C)n(CC(=O)N2c3ccccc3Sc3ccc(C(F)(F)F)cc32)n1	1%	2	-22	-0.9	0
Cc1cccc(Nc2nc(N)nc(CSc3nccc(C)n3)n2)c1	-2%	-1	-25	/	6
Cc1ccc(CN2CCN(/N=C/c3ccc(Cl)c([N+](=O)[O-])c3)CC2)cc1	72%	54	/	9.2	9
Cc1cccc(C)c1NC(=O)/C(=C/c1ccco1)c1ccccc1	16%	-1	-2	-3.9	-12
COc1cc(NC(=S)NC(=O)c2c(OC)cccc2OC)ccc1NC(=O)c1cccs1	5%	1	-36	-12	2

5 records drawn at random from the list so far:
SMILES	Mtb growth	Mtb bLac sens	YopH inh	RecA intein inh	Arbovirus anti	others
Cc1cccc(Nc2nc(N)nc(CSc3nccc(C)n3)n2)c1	-2%	-1	-25	/	6
Cc1cccc(C)c1NC(=O)/C(=C/c1ccco1)c1ccccc1	16%	-1	-2	-3.9	-12
CC(NCCC(Cc1ccccc1)c1ccco1)c1ccccc1 (centres undefined)	6%	-1	/	-0.1	/
Cc1ccc(CN2CCN(/N=C/c3ccc(Cl)c([N+](=O)[O-])c3)CC2)cc1	72%	54	/	9.2	9
COc1cc(NC(=S)NC(=O)c2c(OC)cccc2OC)ccc1NC(=O)c1cccs1	5%	1	-36	-12	2

The results go on.
SMILES	Mtb growth	Mtb bLac sens	YopH inh	RecA intein inh	Arbovirus anti	others
NC(=O)CC(NC(=O)Cc1ccc(Br)cc1)c1ccc(NCc2cc(F)ccc2F)c([N+](=O)[O-])c1 (centres undefined)	-12%	-7	/	-1.8	/
Cc1cc(NC(=O)CCC(=O)N(Cc2cccnc2)C(C(=O)NC(C)(C)C)c2ccccc2Cl)no1 (centres undefined)	/	-3	/	-0.3	/
O=C(CSc1nc(-c2ccccc2)cs1)N1CCc2ccccc21	-2%	-16	4	-0.2	-5
COc1ccc(-c2ccc(/C=C3\C(=O)N(c4ccccc4)N=C3c3ccccc3)o2)c([N+](=O)[O-])c1	13%	2	-36	1.0	-5
COC(=O)c1oc(-c2ccc(Cl)cc2)nc1C	-8%	3	/	1.1	-6
O=C(c1ccc(COc2ccccc2Br)o1)N1CCCCCC1	10%	2	-30	4.8	-1
CC1CCCCC1N=C1NC(C)(C)CS1 (centres undefined)	-7%	-5	/	-0.2	4
CCN(CC)CCN1C(=O)C(=O)/C(=C(/O)c2ccc(OC)cc2)C1c1cccs1 (centres undefined)	-9%	/	10	/	-6
O=C(NC1CCCCC1)c1cc(-c2ccc(O)cc2)on1	/	55	/	0.9	/
O=C(CNc1ccc(Cl)cc1)NNC(=S)NCc1ccccc1	-5%	-16	/	0.1	5
CSc1ncccc1C(=O)N1CCCC(CCC(=O)NCc2ccc(F)c(F)c2)C1 (centres undefined)	12%	-2	/	-2.8	-1
COc1ccc(/C(C)=N/NS(=O)(=O)c2ccccc2)c(OC)c1	8%	-2	/	0.2	3
Cc1cc(NC(=O)C(C)Oc2ccccc2)no1 (centres undefined)	/	-3	/	-2.8	/
CSc1ccc(C(c2c(C(=O)O)[nH]c3ccccc23)c2c(C(=O)O)[nH]c3ccccc23)cc1	/	-2	/	9.6	/
O=C(NNC(=O)c1ccc2c(c1)OCO2)NC12CC3CC(CC(C3)C1)C2	1%	1	-18	-0.8	-7
CN1CCC(=O)N([C@H](CC#N)c2ccccc2)CC1	/	-5	/	0.0	/
CCOc1cc(C#N)c(NC(=O)c2cccnc2Cl)cc1OCC	-6%	1	-14	1.2	-6
Cc1ccc(-c2nn3c(C)nnc3s2)cc1NC(=O)CSc1ccc(Cl)cc1	0%	-11	7	-2.4	-10
Cc1nc2cc(-c3ccsc3-n3c(C)ccc3C)[nH]n2c(=O)c1Cl	-6%	-8	-25	-1.0	17
CCOC(=O)c1c(-c2ccc(OCC)cc2)csc1NC(=O)CCN1C(=O)c2ccccc2C1=O	/	4	-19	1.3	1
O=C(NCc1ccccc1)C(c1ccncc1)N(C(=O)c1csnn1)c1ccccc1F (centres undefined)	/	3	/	0.3	/
O=C(COC(=O)Cc1c(F)cccc1Cl)NC1CCS(=O)(=O)C1 (centres undefined)	/	-2	/	1.7	/
COc1ccc(CNc2nc(NC(C)=O)nn2-c2ccccc2)cc1	/	-5	/	0.1	/
CC(C)OC(=O)c1ccc(COC(=O)c2cccc(-c3nnc(-c4ccccc4)o3)c2)cc1	8%	9	-24	-2.2	-15
NC(=O)CC(NC(=O)Cc1cccc2ccccc12)c1ccc(N2CCCCCC2)c([N+](=O)[O-])c1 (centres undefined)	/	32	/	-0.2	/
COc1cc(NC(=S)Nc2cccc(C)n2)cc(OC)c1OC	7%	4	/	-1.1	-2
COc1ccc(N2CCN(C(=O)c3oc4ccccc4c3NC(=O)CCc3cc(OC)no3)CC2)cc1	/	6	/	0.1	/
O=C(Cn1ncc2c(=O)oc3ccccc3c21)NC1CC1	1%	-6	-40	-1.9	2
NC(=O)c1cccnc1Nc1ccccc1F	0%	-9	-1	2.0	0
CCOC(=O)Cc1csc(NC(=O)CSc2nc(C)cc(=O)[nH]2)n1	-9%	21	-32	-1.6	-2
Oc1c(Br)cc(Br)cc1CNc1ccc(F)cc1	11%	0	/	12	-27
CCCc1nn(C)c2c(=O)[nH]c(-c3ccccc3OCC)nc12	7%	5	-30	-0.8	-4
CCOc1ccccc1NC(=O)Cc1ccccc1OC	3%	2	-25	4.5	-2
CCN(CC(=O)Nc1cccc(S(N)(=O)=O)c1)Cc1nc2ccccc2c(=O)[nH]1	-9%	-7	/	-0.3	/
CCCCNC(=O)C1CCCN(S(=O)(=O)c2ccc(S(=O)(=O)NCC(C)C)cc2)C1 (centres undefined)	-12%	-8	0	1.1	-11
CC(=O)c1c(C)[nH]c(C(=O)Nc2cccc(C)c2C)c1C	/	6	/	-0.3	/
CCn1c(SCC(=O)Nc2ccc(F)cc2F)nc2c(c1=O)SCC2	/	5	/	1.3	/
O=C(N/C(=C/c1cccs1)C(=O)N1CCOCC1)c1cccs1	1%	-6	/	0.2	5
CC1=CC(C)(C)N(C(=O)C(C)N2C(=O)c3ccccc3C2=O)c2ccc(C)cc21 (centres undefined)	-3%	-4	0	1.5	-10
O=C(c1cc(COc2ccc(F)cc2Cl)on1)N1CC2C[C@@H]3CC1C[C@H](C2)C3	/	-5	/	-1.3	/
CN(C(=O)COc1ccc(Cl)cc1)c1nnc(C23CC4CC(CC(C4)C2)C3)s1	6%	/	/	/	5
Cc1ccc(C)c(S(=O)(=O)N=Nc2c(O)[nH]c3ccccc23)c1	-1%	-1	/	0.3	2
COc1ccc(N2CCN(C(=O)Cc3coc4cc(C)ccc34)CC2)cc1	5%	12	/	-0.1	-11
O=C(N/N=C/c1ccc([N+](=O)[O-])s1)c1ccccc1Br	?	99	18	0.6	-26
COCCn1c(SCC(=O)c2ccccc2)nc2c(c1=O)SCC2	3%	-6	/	0.5	2
CCCN1CCc2c(sc(NC(=O)c3ccc(S(=O)(=O)N4CCN(C(=O)OCC)CC4)cc3)c2C(N)=O)C1	/	?	/	-5.2	/
Cc1ccccc1N(CC(=O)N/N=C/c1cc(C)n(-c2ccccc2C)c1C)S(C)(=O)=O	5%	32	-23	-2.1	12
COc1ccc(/C=C/C(=O)OCC(=O)Nc2ccc(N3CCOCC3)cc2)cc1OC	-2%	-1	/	/	/
CSc1ccccc1OCc1cc(C(=O)NCCc2ccco2)no1	/	-10	/	0.0	/
CC1CCCC(C)N1C(=O)CSc1nnc(-c2cccs2)o1 (centres undefined)	-9%	3	10	1.2	3
Cc1ccc(C)c(N2CCN(CCCc3ccccc3)CC2)c1	/	4	/	1.7	/
O=C(/C=C/c1ccco1)NCCCN1CCOCC1	-4%	3	/	1.0	0
Cc1ccc(S(=O)(=O)N2CC3(C)CN(S(=O)(=O)c4ccc(C)cc4)CC(C)(C2)C3O)cc1 (centres undefined)	-2%	-1	-8	0.2	4
CS(=O)(=O)N1CCN(c2ccc(NC(=S)NC(=O)c3ccccc3[N+](=O)[O-])cc2)CC1	-8%	1	/	-3.1	-2
O=[N+]([O-])c1ccc2c(c1Nc1ccccc1)=NC1(CCCCC1)N=2	2%	-3	-37	0.1	-2
O=C(COc1ccc(F)cc1Cl)Nc1ccccc1C(=O)N1CCCCC1	/	0	/	8.6	/
CCC(=O)N/N=C(\C)CC(=O)Nc1ccc2ccccc2c1	?	99	-22	-1.4	-2
COC(=O)c1ccc(/C=N/Nc2nc(-c3ccccc3)cs2)cc1	-9%	2	-4	-2.8	16
CC(c1ccccc1)N1CCc2[nH]c(=S)[nH]c(=O)c2C1 (centres undefined)	4%	-5	/	-7.9	14
